RE007 growth inh: less growth of the S. pombe RE007 Vpr strain; S. pombe RE007 Vpr strain, BacTiter-Glo ATP luminescence, 24 h; control for the full effect not named in the record; Potency, µM (top dose mostly 92.2 µM), without a hit: at the highest dose activity change, negative = less growth; hit rate 0.21% among 360,000; active = well fitted falling curve with a large enough effect; inconclusive = small, poorly fitted or top-dose-only effect; inactive = no such curve, though single readings can be large or run the other way;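 further: on the % scale 0 is the no-effect control and ±100 the full control effect; nearly all actives have a fitted effect of over 50% in size; the assay follows cell death caused by Vpr and the record does not say whether a fall means rescue or toxicity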
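Fission yeast strain RE007, carrying one chromosomally integrated HIV-1 vpr copy, was seeded at OD 0.01 in PMG+AL medium with 23 nL pinned compound. After 24 h at 30 °C and 99% humidity, viability was read by BacTiter-Glo luminescence.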
StopGo reporter: lowers the luciferase signal of an FMDV 2A StopGo reporter; human cells with a luciferase reporter of 2A StopGo recoding; control for the full effect not named in the record; AID 1159524; hit rate 1.2% among 410,000; Potency, µM (doses to about 57.9 µM), without a hit: at the top dose signal change, negative = less light; active = well fitted falling curve with a large enough effect; inconclusive = small, poorly fitted or top-dose-only effect; inactive = no such curve, though single readings can be large or run the other way; tested in HEK293T cells; further: on the % scale 0 is the no-effect control and ±100 the full control effect; nearly all actives have a fitted effect of over 45% in size; luciferase light after 4 h
SARS PLP yeast: SARS-CoV PLP inhibition in yeast. Potency, µM (top dose mostly 32.9 µM), for the others: at the highest dose activity, positive = growth rescue. S. cerevisiae expressing SARS-CoV PLpro, growth rescue; control for the full effect not named in the record. hit rate 0.19% among 330,000; active means well fitted rising curve with a large enough effect; inconclusive means small, poorly fitted or top-dose-only effect; inactive means no such curve, though single readings can be large or run the other way; further: 0% is about no effect; nearly all actives have a fitted effect of over 55% in size; growth read by luminescence after 48 h
The depositor's hits bear a star; [ ] = remark or other dose. Potency means the concentration at half of the fitted maximal effect. Not all compounds are listed. The share of hits here may be higher or lower than overall.

Screening CCOC(=O)[C@H]1[C@H]2COc3ccc(Cl)cc3[C@@H]2N2C(=O)c3ccccc3NC(=O)[C@@]12C returned RE007 growth inh 8%, StopGo reporter inconclusive and SARS PLP yeast -11%.
Screening O=C(CNC(=O)c1ccccc1Br)N/N=C/c1cc(Br)ccc1O returned RE007 growth inh 27%, StopGo reporter -18% and SARS PLP yeast 0%.
`O=C(CSc1nc(C2CC2)n(-c2ccccc2)n1)NCc1ccco1` gave RE007 growth inh -2%, StopGo reporter -1% and SARS PLP yeast 1%.
For O=C(O)CCC(=NNC(=O)c1cccc(S(=O)(=O)N2CCCCC2)c1)c1ccccc1 the results were RE007 growth inh 0%, StopGo reporter -15% and SARS PLP yeast -1%.
For N#CCC(=O)Nc1ccc(C(=O)OCC(=O)NC2CCCCCC2)cc1 the results were RE007 growth inh 13%, StopGo reporter -6% and SARS PLP yeast -4%.
`O=C(NCc1ccccn1)c1c(-c2ccccc2)sc2ccccc12` gave RE007 growth inh -3%, StopGo reporter 3% and SARS PLP yeast 2%.
`COc1ccc(NC(=O)C(CC(C)C)NC(=O)C2CCC(C)CC2)c(OC)c1` (stereo not drawn) gave RE007 growth inh 0%, StopGo reporter 24% and SARS PLP yeast -4%.
`CCOC(=O)C1=CN(Cc2ccc(Br)cc2)S(=O)(=O)NC1C` (stereo not drawn) gave RE007 growth inh 8%, StopGo reporter -7% and SARS PLP yeast -7%.
`COC(=O)[C@@]12CCCCN1[C@H](c1ccc(-c3ccc(F)cc3)c(OC)c1)[C@H]1C(=O)N(C)C(=O)[C@H]12` gave RE007 growth inh -6%, StopGo reporter inconclusive and SARS PLP yeast -8%.
`CN(C)S(=O)(=O)c1cccc(NC(=O)Cn2cc(C(F)(F)F)cc(Cl)c2=O)c1` gave RE007 growth inh -15%, StopGo reporter -7% and SARS PLP yeast -5%.
Screening COC(=O)[C@]1(C)N[C@H](CN(C)C(=O)Nc2ccccc2)[C@@H]2C(=O)N(Cc3ccccc3)C(=O)[C@@H]21 returned RE007 growth inh -3%, StopGo reporter -14% and SARS PLP yeast -2%.
`COc1ccc2c(c1)O[C@@]1(CCCC[C@@H]1C)CC2=O` gave RE007 growth inh -1%, StopGo reporter -6% and SARS PLP yeast 1%.
`CC1(C)C(=O)Nc2ccccc2N1C(=O)COc1cc(Cl)ccc1Cl` gave RE007 growth inh -8%, StopGo reporter -24% and SARS PLP yeast -2%.
For Cc1noc(C)c1COc1ccc(C(=O)NCCc2ccccn2)cc1 the results were RE007 growth inh -11%, StopGo reporter 4% and SARS PLP yeast 0%.
Screening CN(C)c1nc(N/N=C/c2c[nH]c3ccccc23)nc(N2CCOCC2)n1 returned RE007 growth inh 0%, StopGo reporter -36% and SARS PLP yeast 0%.
Screening Cc1ccc([C@H]2C(C(=O)O)=CC[C@@H](c3ccc(C(C)C)cc3)N2S(=O)(=O)c2ccc(C)cc2)cc1 returned RE007 growth inh 0%, StopGo reporter -13% and SARS PLP yeast -21%.
For C[C@@]12C(=O)Nc3ccc(Br)cc3C(=O)N1[C@H]1c3cc(Cl)ccc3OC[C@@H]1[C@@H]2c1ccccc1 the results were RE007 growth inh 5%, StopGo reporter -25% and SARS PLP yeast -2%.
`N#Cc1ccccc1NC(=O)CN1C(=O)NC(Cc2c[nH]c3ccccc23)C1=O` (stereo not drawn) gave RE007 growth inh -7%, StopGo reporter 21% and SARS PLP yeast 6%.
COc1cc(C(=O)OCc2ccccc2C#N)ccc1OCC(=O)N1CCOCC1 was read as RE007 growth inh 3%, StopGo reporter -10% and SARS PLP yeast -3%.
CCOC(=O)C1=CN(Cc2cccc(F)c2)S(=O)(=O)N(CC)C1c1cccc(OC)c1 (stereo not drawn) was read as RE007 growth inh 2%, StopGo reporter 3% and SARS PLP yeast -24%.
CC(=O)Cc1nsc(NC(=O)c2oc(-c3ccccc3Cl)cc2C)n1 was read as RE007 growth inh 1%, StopGo reporter 0% and SARS PLP yeast -2%.
For CN(C)C(=O)CSc1nnc(-c2ccncc2)n1Cc1ccco1 the results were RE007 growth inh 12%, StopGo reporter 2% and SARS PLP yeast -2%.
`O=C(CN1C(=O)c2ccccc2S1(=O)=O)NCCc1ccc(F)cc1` gave RE007 growth inh -2%, StopGo reporter 37%[activator] and SARS PLP yeast -5%.
For COc1ccc([C@@H]2CC=C(C(=O)O)CN2S(=O)(=O)c2ccc(C)cc2)cc1OC the results were RE007 growth inh 1%, StopGo reporter -1% and SARS PLP yeast 8%.
For N#Cc1ccc(CN2CCN(C(=O)CCNS(=O)(=O)c3ccc(F)c(F)c3)CC2)cc1 the results were RE007 growth inh 8%, StopGo reporter -22% and SARS PLP yeast 1%.
For COCCNc1nnc(SCC(=O)NC2CCCCC2)s1 the results were RE007 growth inh 5%, StopGo reporter -20% and SARS PLP yeast -2%.
`O=C(NN=Cc1ccccc1C(=O)O)c1ccc(NS(=O)(=O)c2cccs2)cc1` gave RE007 growth inh 2%, StopGo reporter 3% and SARS PLP yeast 2%.
For C/C(=C\c1ccccc1)C(=O)NCc1ccco1 the results were RE007 growth inh 11%, StopGo reporter 12% and SARS PLP yeast 1%.
`O=[N+]([O-])c1ccc(-n2cccn2)c(-c2nn[nH]n2)c1` gave RE007 growth inh -3%, StopGo reporter -13% and SARS PLP yeast -1%.
Screening CC(=O)NN1C(=O)c2ccccc2NC1c1ccc([N+](=O)[O-])o1 (stereo not drawn) returned RE007 growth inh -4%, StopGo reporter -19% and SARS PLP yeast -2%.
Screening CCOC(=O)[C@H]1[C@H]2COc3cc(OC)ccc3[C@@H]2N2C(=O)c3cc(OC)ccc3NC(=O)[C@@]12C returned RE007 growth inh -8%, StopGo reporter -24% and SARS PLP yeast -1%.
`COc1ccccc1C(=O)O[C@H]1[C@H](Cc2ccccc2)NS(=O)(=O)[C@H]2C[C@@H]3C=C[C@]12O3` gave RE007 growth inh -5%, StopGo reporter -2% and SARS PLP yeast -5%.
For O=C(NCC1CCCO1)c1cc2c(=O)[nH]c3ccccc3c2s1 (stereo not drawn) the results were RE007 growth inh 16%, StopGo reporter 8% and SARS PLP yeast -3%.
`C=CCC1[C@H](C)[C@H]2[C@@H]3CC[C@@H](C3)[C@H]2CN1S(=O)(=O)c1ccc(C)cc1` (stereo partly drawn) gave RE007 growth inh -8%, StopGo reporter inconclusive and SARS PLP yeast -66%.
Screening CCCN(C(=O)COC(=O)CSc1ccc([N+](=O)[O-])cc1)C1CCS(=O)(=O)C1 (stereo not drawn) returned RE007 growth inh -24%, StopGo reporter -13% and SARS PLP yeast 5%.
Screening Cc1c(C)c(C)c(S(=O)(=O)NCCC(=O)N2CCN(Cc3ccc(C#N)cc3)CC2)c(C)c1C returned RE007 growth inh 5%, StopGo reporter -14% and SARS PLP yeast 8%.
O=C(c1cc(S(=O)(=O)N2CCC3(CC2)OCCO3)ccc1F)N1CCC2(CC1)OCCO2 was read as RE007 growth inh 3%, StopGo reporter 14% and SARS PLP yeast 4%.
CC1CCCCC12NC(=O)N(CC(=O)NCCc1ccc(S(N)(=O)=O)cc1)C2=O (stereo not drawn) was read as RE007 growth inh 14%, StopGo reporter -2% and SARS PLP yeast 1%.
`Cc1ccc(NC(=O)CN2C(=O)C(=O)N(C3CCCC3)C2=O)cc1Cl` gave RE007 growth inh 9%, StopGo reporter -3% and SARS PLP yeast 11%.
O=C(O)c1c2c(nc3ccc(S(=O)(=O)N4CCC(C(=O)NC5CCCCCC5)CC4)cc13)CCCC2 was read as RE007 growth inh -13%, StopGo reporter 31% and SARS PLP yeast 2%.
CCOC(=O)c1sc(NC(=O)CSCc2c(C)noc2C)nc1C was read as RE007 growth inh -11%, StopGo reporter -15% and SARS PLP yeast 2%.
For Nc1c(C(=O)CSc2n[nH]c(-c3ccccc3Br)n2)c(=O)[nH]c(=O)n1C1CC1 the results were RE007 growth inh -5%, StopGo reporter 2% and SARS PLP yeast 11%.
`CN(CC(=O)NCc1ccccc1Cl)CC(=O)Nc1ccccc1Br` gave RE007 growth inh 2%, StopGo reporter -26% and SARS PLP yeast 2%.
`CC(NC(=O)CNC(=O)c1ccc2c(c1)OCO2)c1ccc(S(N)(=O)=O)cc1` (stereo not drawn) gave RE007 growth inh -4%, StopGo reporter -5% and SARS PLP yeast -1%.
CSc1nc2ccc(NS(=O)(=O)c3ccc(CNC(C)=O)cc3)cc2s1 was read as RE007 growth inh 0%, StopGo reporter -1% and SARS PLP yeast -2%.

In the list so far, these have a furan ring, fused or not:
`O=C(CSc1nc(C2CC2)n(-c2ccccc2)n1)NCc1ccco1` gave RE007 growth inh -2%, StopGo reporter -1% and SARS PLP yeast 1%.
CC(=O)Cc1nsc(NC(=O)c2oc(-c3ccccc3Cl)cc2C)n1 was read as RE007 growth inh 1%, StopGo reporter 0% and SARS PLP yeast -2%.
For CN(C)C(=O)CSc1nnc(-c2ccncc2)n1Cc1ccco1 the results were RE007 growth inh 12%, StopGo reporter 2% and SARS PLP yeast -2%.
For C/C(=C\c1ccccc1)C(=O)NCc1ccco1 the results were RE007 growth inh 11%, StopGo reporter 12% and SARS PLP yeast 1%.
Screening CC(=O)NN1C(=O)c2ccccc2NC1c1ccc([N+](=O)[O-])o1 (stereo not drawn) returned RE007 growth inh -4%, StopGo reporter -19% and SARS PLP yeast -2%.

Further entries follow:
For COc1ccccc1NC(=O)COC(=O)c1cc([N+](=O)[O-])ccc1N1CCCC1 the results were RE007 growth inh -6%, StopGo reporter inconclusive and SARS PLP yeast -2%.
`COCC(C)n1c(C)cc(C(=O)COC(=O)c2cnc(Cl)c(Cl)c2)c1C` (stereo not drawn) gave RE007 growth inh 1%, StopGo reporter -22% and SARS PLP yeast 0%.
Screening COc1ccc(OCCCC(=O)Nc2cccc(S(=O)(=O)N3CCCCCC3)c2)cc1 returned RE007 growth inh -10%, StopGo reporter inconclusive and SARS PLP yeast -5%.
`COC(=O)C1=C(C)C(c2ccc(OC)cc2)NC(=O)N1` (stereo not drawn) gave RE007 growth inh 0%, StopGo reporter -11% and SARS PLP yeast 0%.
Screening Cc1ccc(-c2csc(NCCn3c(-c4ccncc4)nc4cc(C(F)(F)F)ccc43)n2)cc1 returned RE007 growth inh 0%, StopGo reporter -25% and SARS PLP yeast -2%.
COC(=O)CCNC(=O)CCc1ccc(S(=O)(=O)N2CCCCCC2)cc1 was read as RE007 growth inh -7%, StopGo reporter -5% and SARS PLP yeast 2%.
Screening CC(C)NC(=O)Nc1ccc2c(c1)C(=O)N([C@H](C)CO)C[C@H](C)[C@@H](CN(C)S(=O)(=O)c1cccs1)O2 returned RE007 growth inh -10%, StopGo reporter -10% and SARS PLP yeast -47%.
Screening CCCn1c(N)c(N(CCOC)C(=O)c2ccc(-c3ccccc3)cc2)c(=O)[nH]c1=O returned RE007 growth inh 10%, StopGo reporter -15% and SARS PLP yeast 0%.
`Cn1nnnc1SCC(=O)Nc1cccc(S(=O)(=O)N2CCCC2)c1` gave RE007 growth inh -16%, StopGo reporter -11% and SARS PLP yeast 3%.
For O=C(COC(=O)c1ccc(Cl)nc1)NNC(=O)c1ccc(Br)cc1 the results were RE007 growth inh -9%, StopGo reporter -1% and SARS PLP yeast -5%.
CC(C)(C)[C@@H]1COC(=O)[C@H](Cc2ccc(F)cc2)C/C=C\C[C@H](CC(=O)N(CCO)Cc2ccccc2)C(=O)N1 was read as RE007 growth inh 10%, StopGo reporter 0% and SARS PLP yeast -39%.
For C[C@@H]1CCC(=O)N(CC[C@H](Sc2ccc(Br)cc2)c2ccccc2)CC1 the results were RE007 growth inh 12%, StopGo reporter inconclusive and SARS PLP yeast -4%.
`CCN(CC)S(=O)(=O)c1cc(NC(=O)C2CC(=O)N(Cc3ccccc3)C2)ccc1Cl` (stereo not drawn) gave RE007 growth inh 8%, StopGo reporter 11µM* and SARS PLP yeast 0%.
For O=S1(=O)N=C(Nc2ccc(O)cc2)c2ccccc21 the results were RE007 growth inh 7%, StopGo reporter 2% and SARS PLP yeast 0%.
`CSCCC(NS(=O)(=O)c1ccc2c(c1)OCCO2)C(=O)N(C)Cc1ccccc1F` (stereo not drawn) gave RE007 growth inh 3%, StopGo reporter -9% and SARS PLP yeast -6%.
COc1cc(OC)cc(C(=O)NC(C(=O)NNC(=O)c2cc(Cl)ccc2OC)C(C)C)c1 (stereo not drawn) was read as RE007 growth inh 18%, StopGo reporter -11% and SARS PLP yeast 6%.
`CC1=Nc2ccc(Br)cc2C(c2ccccc2)N1CC(=O)NN` (stereo not drawn) gave RE007 growth inh -13%, StopGo reporter 8% and SARS PLP yeast 15%.
Screening O=C(C[C@@H]1C/C=C\C[C@H](Cc2ccc(F)cc2)C(=O)OC[C@@H](c2ccccc2)NC1=O)NCCO returned RE007 growth inh 0%, StopGo reporter -8% and SARS PLP yeast -2%.

Screens from PubChem.
